Bioassay records deposited in PubChem BioAssay by several laboratories.
CSC inhib = cancer stem cell viability inhibitors, primary screen, luminescence. cancer stem cell-like cells viability. AID 2717, 2010. 300,000 tested, 1.1% active. inhibition, % at 7.5 µM;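 active = mean at 75% or more and at least half the replicates too; inconclusive = mean and replicates disagree; tested in HMLE shEcad cells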;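 also: 0% = median of negative and 100% = median of positive control wells; the first replicate is given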
Rce1 inhib = yeast Rce1p protease inhibitors, primary screen, biochemical, fluorescence, cell-free homogeneous; calls only; CAAX prenyl protease 2 (Saccharomyces cerevisiae (strain ATCC 204508 / S288c)), Q03530; yeast membranes, quenched prenylated peptide cleavage fluorescence; 290,000 tested, 0.27% active; AID 2563, 2010;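 active = fall in fluorescence gain of 50% or more versus controls, with final raw signal at or below 3038400; inconclusive = same 50% fall but final raw signal above 3038400; inactive = fall in fluorescence gain under 50%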;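 also: plate controls were neutral control wells for no effect and wells lacking membranes for full effect; tested at 10 µM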
Target sequence (Q03530 whole entry, looked up): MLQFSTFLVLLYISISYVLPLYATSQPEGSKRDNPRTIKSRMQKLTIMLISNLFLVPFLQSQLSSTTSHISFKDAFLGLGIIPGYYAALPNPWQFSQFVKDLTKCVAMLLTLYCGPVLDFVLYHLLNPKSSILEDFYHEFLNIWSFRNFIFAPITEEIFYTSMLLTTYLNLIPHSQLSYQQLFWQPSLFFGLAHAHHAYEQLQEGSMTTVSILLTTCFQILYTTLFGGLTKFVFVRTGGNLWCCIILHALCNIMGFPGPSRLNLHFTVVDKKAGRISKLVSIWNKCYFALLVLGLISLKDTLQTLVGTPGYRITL
MT1-MMP act inh = blockers of MT1-MMP proenzyme processing, primary screen, HT1080 RFP-PRO-GFP cells, GFP/RFP fluorescence. Matrix metalloproteinase-14 (Homo sapiens), P50281. GFP/RFP ratio fluorescence, overnight; percent of plate control window, DMSO zero. GFP/RFP ratio change, % at 20 µM. 360,000 tested, 0.061% active. AID 651647, 2012;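 active = GFP/RFP ratio change of at least 30% with cell ATP level not reduced by more than half and red fluorescence within 50% of control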; also: strong numbers were not always called active
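system = RFP-PRO-GFP reporter HT1080 cells | dosing = 20 µM single dose, 1% DMSO | timing = overnight cell settling, then overnight compound exposure, 37 °C, 5% CO2 | read-out basis = GFP/RFP fluorescence ratio | controls = DMSO and RFP-L50D-GFP cell wells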
eIF4H FP inh = human eIF4H binding inhibitors, primary screen, translation initiation inhibitor project, biochemical, uHTS, fluorescence polarization; Eukaryotic translation initiation factor 4H (Homo sapiens), Q15056; eIF4H fluorescence polarization binding assay; inhibition, % at 35 µM; 290,000 tested, 0.94% active; AID 2012, 2009;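 active = 50% or more with normal probe brightness, or confirmed in later tests; inconclusive = above 50% with abnormal brightness, or retests that disagree; inactive = below 50% or failed in later tests; about a fifth of its hits are not listed in these tables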;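 also: calls also rest on retests at 20 µM and on dose response follow-up; 0% = protein and probe with vehicle and 100% = probe without protein; strong numbers were not always called active; many hits fall short of the cut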
HIV Env fusion = inhibitors of HIV-1 Env-driven cell-cell fusion, primary screen, HeLa-JRFL effector, CEM21 target cells, luciferase; inhibition, % at 12.3 µM; 360,000 tested, 1.1% active; AID 651610, 2012;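 active = mean replicate inhibition score of at least 50 and every replicate individually at or above 50; inconclusive = only one of the two criteria met; inactive = mean below 50 and not all replicates reaching 50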;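 also: 0% = plate neutral controls and 100% = maraviroc near 300 nM; one replicate is shown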
UUG fidelity = modulators of yeast start codon fidelity, primary screen, whole organism, S. cerevisiae, single point, plate reader; S. cerevisiae UUG-firefly luciferase reporter, luminescence/redox ratio; activity score, % at 18.7 µM; 350,000 tested, 0.13% active;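 active = replicate mean at a twofold rise or more, about +100% in these data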;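 also: firefly luciferase made from a UUG start codon reports start codon fidelity; reporter light over untreated wells divided by growth signal over untreated wells; some hits fall short of that in this replicate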
PABP FP inh = PABP poly(A) RNA binding inhibitors, primary screen, biochemical, fluorescence polarization, uHTS. Polyadenylate-binding protein 1 (Homo sapiens), P11940. inhibition, % at 35 µM. 290,000 tested, 1% active;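 active = 50% or more with normal probe brightness, or confirmed in later tests; inconclusive = above 50% with abnormal brightness, or retests that disagree; inactive = below 50% or failed in later tests; about a fifth of its hits are not listed in these tables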;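 also: calls also rest on retests at 20 µM and on dose response follow-up; controls were probe without protein and protein plus probe with vehicle; some compounds called inactive have numbers as strong as hits; many hits fall short of the cut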
eIF4H FP inh retest = also measured in eIF4H FP inh; calls as there; inhibition, %; compound at 20 µM; confirmation average;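 mean of two retest wells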
PABP FP inh retest = second read-out of PABP FP inh, no call of its own (marks repeat the call); inhibition, %; compound at 20 µM; confirmation repeats;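 mean of two retest wells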
MT1-MMP act inh RFP = recorded beside MT1-MMP act inh, whose call it bears; RFP signal change, %; measured here: RFP expression control read;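 0 = vehicle wells; hits needed this value within 50% of zero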
Starred values were filed as active, the others as inactive; i = inactive; ? = inconclusive; . = no result given; & = joins results of further samples; [ ] = remark or other dose. Only part of the results is shown, so the mix of outcomes need not match the whole.

SMILES	CSC inhib	Rce1 inhib	MT1-MMP act inh	MT1-MMP act inh RFP	eIF4H FP inh	HIV Env fusion	UUG fidelity	PABP FP inh	others
CC(C)CN1C(=O)NC(NS(=O)(=O)c2ccc(N)cc2)(C(F)(F)F)C1=O (centres undefined)	3	i	2	2	-4	17	.	2
O=C(CN1C(=O)C2CC=CCC2C1=O)Nc1nnc(SCc2c(Cl)cccc2Cl)s1 (centres undefined)	-3	i	-3	7	-5	-16	-3	10
CC(=O)c1cn(CCOc2ccc(F)cc2)c2ccccc12	27	i	-1	-28	-8	-8	-11	-8
CCCCC1CCC(C(=O)OC(C)C(=O)Nc2ccc(NC(C)=O)cc2)CC1 (centres undefined)	2	i	-1	0	-10	0	-13	24
COc1ccc(O)c(C(=O)c2cnn(-c3ccc(Cl)cc3)c2)c1	42	i	-1	-3	-8	-11	-3	-2
CC(C)OP(=O)(OC(C)C)/C(C=O)=N\Nc1ccc([N+](=O)[O-])cc1	26	i	8	-4	-8	-1	11	-5
CC(=O)N1CCN(C(=O)c2ccc(-n3c(C)ccc3C)cc2)CC1	-6	i	2	3	-7	-65	-6	61	eIF4H FP inh retest=-9;PABP FP inh retest=4
COc1ccc(COC(=O)C2=C(C)NC(=O)NC2c2cccc(OC)c2OC)cc1 (centres undefined)	-5	i	0	2	10	33	2	0
CC(=O)N1CCc2cc(S(=O)(=O)NC(CC(C)C)C(=O)Nc3ccc4c(c3)OCCO4)ccc21 (centres undefined)	8	.	7	11	3	.	-11	-1
CCc1nc(-c2cc3ccc(C)cc3[nH]c2=O)no1	-1	i	4	-2	-3	-77	-4	6
O=C(Cn1cccc1C(=O)c1ccccc1)NCc1ccc(Cl)cc1	-3	i	-1	3	-8	-12	.	5
O=C(Nc1nnc(-c2ccco2)o1)c1cccc2ccccc12	20	i	6	6	6	18	.	-8
CCOc1ccccc1C1N=C(c2ccc(OC)cc2)CC(c2ccccc2O)N1 (centres undefined)	71	i	-4	-6	-9	-3	.	-1
COC(=O)C1=C(C(=O)OC)[C@@H]2N(Cc3ccccc3)c3ccccc3[C@@]23C[C@@H](CO)N(C(=O)NC2CCCC2)C3=N1	4	i	2	0	-1	9	-8	2
c1ccc(-n2nnnc2Oc2cccc3cccnc23)cc1	.	i	0	-3	3	.	-32	1
Cc1ccc(Cl)cc1NC(=O)C[n+]1ccc(Cc2ccc([N+](=O)[O-])cc2)cc1	18	i	-2	-5	-2	-3	.	-14
COc1ccccc1CNC(=O)c1ccc(NS(=O)(=O)c2cccs2)cc1	17	i	0	4	1	8	1	12
COc1ccc(NC(=S)N2CCN(S(=O)(=O)c3ccccc3)CC2)cc1	1	i	-2	2	8	31	-17	6
COc1ccc2[nH]c3c(c2c1)CCN1C(=O)C(CC(=O)NCC24CC5CC(CC(C5)C2)C4)C[C@H](C(=O)N2CCOCC2)[C@@]31C (some centres undefined)	.	.	0	-2	.	20	-10	.
Cc1ccc(S(=O)(=O)c2ccc(NN)cc2)cc1	.	.	1	0	2	8	-14	-4
COCCNC(=O)CCCCCn1c(=S)[nH]c2ccccc2c1=O	-16	i	3	6	-7	-11	1	0
O=C(CSc1nc(C(F)(F)F)cc(=O)[nH]1)N1CCCC1	.	i	1	4	.	2	-12	.
CCOC(=O)c1nn(-c2ccccc2)c(=O)cc1SC(C)CC (centres undefined)	6	i	-3	-2	0	13	1	-3
CCc1ccc(/C=C2/SC(=S)N(CCCC(=O)Nc3ccccc3C(=O)O)C2=O)cc1	8	i	5	-4	6	42	-14	4
NC(=O)c1ccsc1NC(=O)CSc1nnc(Nc2ccccc2)s1	.	i	0	-7	46	10	.	25

Compounds from the list above with a CF3 group:
SMILES	CSC inhib	Rce1 inhib	MT1-MMP act inh	MT1-MMP act inh RFP	eIF4H FP inh	HIV Env fusion	UUG fidelity	PABP FP inh	others
CC(C)CN1C(=O)NC(NS(=O)(=O)c2ccc(N)cc2)(C(F)(F)F)C1=O (centres undefined)	3	i	2	2	-4	17	.	2
O=C(CSc1nc(C(F)(F)F)cc(=O)[nH]1)N1CCCC1	.	i	1	4	.	2	-12	.

The results go on.
SMILES	CSC inhib	Rce1 inhib	MT1-MMP act inh	MT1-MMP act inh RFP	eIF4H FP inh	HIV Env fusion	UUG fidelity	PABP FP inh	others
Cc1cc(OCC(=O)N[C@@H](Cc2ccccc2)c2nc3ccccc3[nH]2)ccc1Cl	19	i	2	2	-8	-19	-12	-1
Cc1ccc(-n2nnnc2SCCNS(=O)(=O)c2ccccc2)cc1C	-1	i	-5	-7	-2	.	.	-3
COc1ccc(CC(=O)OCc2cc3cccc(C)c3[nH]c2=O)cc1	-4	i	4	1	-13	.	7	-4
CCN(Cc1ccccc1)S(=O)(=O)c1cc(C(=O)c2c(N)n(C)c(=O)n(C)c2=O)ccc1OC	-4	i	3	0	?	0	.	?
Cc1oc(C)c(C(=O)NCCCC(=O)O)c1C(=O)NCCCC(=O)O	-3	i	4	10	4	.	-8	-2
CNC(=S)N1C2CCCC1CC(NC(=O)c1ccc(C)cc1)C2 (centres undefined)	.	.	2	4	.	-128	-20	.
NC(N)=NC(N)=Nc1cccc2ccccc12	-11	i	1	0	3	1	-18	20
Cc1cccc(C)c1OCC(=O)NC1CC1	-2	i	-3	0	3	-14	-3	8
Cc1ccc2sc(NNC(=O)c3cc(=O)c4ccccc4o3)nc2c1C	53	i	1	8	9	-20	-14	8
CC1Cc2ccccc2N1C(=O)COC(=O)C1=COCCO1 (centres undefined)	-12	i	0	0	4	?	-7	3
CC(C)(C)n1nc2c(c1NC(=O)COc1ccc3ccccc3c1)CS(=O)C2 (centres undefined)	-7	i	0	0	-11	0	-15	7
O=C(N/N=C/c1cccc(O)c1)c1cc2c(ccc3ccccc32)o1	-3	i	2	2	-8	-28	-6	-1
CCC(=O)N(CCC(c1ccccc1)c1ccco1)Cc1cccs1 (centres undefined)	-9	i	-10	-13	-1	16	-14	-8
O=c1[nH]c(=O)c2nc(-c3ccc(Cl)cc3)cnc2[nH]1	-4	i	4	7	-6	-41	-12	-2
Cc1cc(C2C(=O)NC(=O)C2=O)c(C)cc1Br (centres undefined)	.	.	2	3	.	3	-11	.
O=C(N=Nc1c(O)[nH]c2ccccc12)c1cc(-c2cccs2)[nH]n1	15	i	-2	-4	.	-4	-8	.
CSC1=NSC2=NC(=O)/C(=C\c3cccs3)C(=N)N12	32	i	35*	-18*	79	-18	8	2	eIF4H FP inh retest=38;PABP FP inh retest=-1
COc1cccc(CNc2nc3cc(-c4ccccc4CO)sc3c(=O)n2C)c1	.	.	5	1	.	-8	-9	.
COc1cccc(S(=O)(=O)Nc2ccc3c(c2)[C@@H]2C[C@@H](CC(=O)NCc4ccc(Cl)cc4)O[C@@H](CO)[C@@H]2O3)c1	.	.	-1	-15	.	-21[16.7 µM]	7&-2	.
COc1cc(CN2CCCC(CO)(Cc3ccccc3)C2)ccc1O (centres undefined)	.	i	-3	-8	10	-7	5	6
COc1ccc(C2(C)NC(=O)N(CC(=O)Nc3ccc4[nH]c(=O)[nH]c4c3)C2=O)cc1 (centres undefined)	-5	i	13	2	.	-10	-17	.
Cc1cc(-c2nnc(SCC(=O)Nc3ccccn3)o2)no1	-10	i	-2	0	-4	-1	.	3
O=C(c1ccc(Br)s1)N1CCN(c2ccccn2)CC1	10	i	1	0	2	16	-5	4
Cc1onc(-c2ccccc2)c1CNC(=O)Nc1ccc(C(F)(F)F)cc1	21	i	7	-13	-10	12	-3	-4
COc1ccc(C(=O)Nc2ccc3c4c(cccc24)CC3)cc1	14	i	1	-4	-2	-86	.	-4

7 compounds from above, arranged by molar mass, lowest first.
SMILES	CSC inhib	Rce1 inhib	MT1-MMP act inh	MT1-MMP act inh RFP	eIF4H FP inh	HIV Env fusion	UUG fidelity	PABP FP inh	others
CSC1=NSC2=NC(=O)/C(=C\c3cccs3)C(=N)N12	32	i	35*	-18*	79	-18	8	2	eIF4H FP inh retest=38;PABP FP inh retest=-1
COc1ccc(CC(=O)OCc2cc3cccc(C)c3[nH]c2=O)cc1	-4	i	4	1	-13	.	7	-4
COc1cc(CN2CCCC(CO)(Cc3ccccc3)C2)ccc1O (centres undefined)	.	i	-3	-8	10	-7	5	6
CCC(=O)N(CCC(c1ccccc1)c1ccco1)Cc1cccs1 (centres undefined)	-9	i	-10	-13	-1	16	-14	-8
Cc1onc(-c2ccccc2)c1CNC(=O)Nc1ccc(C(F)(F)F)cc1	21	i	7	-13	-10	12	-3	-4
COc1cccc(CNc2nc3cc(-c4ccccc4CO)sc3c(=O)n2C)c1	.	.	5	1	.	-8	-9	.
CCN(Cc1ccccc1)S(=O)(=O)c1cc(C(=O)c2c(N)n(C)c(=O)n(C)c2=O)ccc1OC	-4	i	3	0	?	0	.	?

Structures shown so far with a nitro group on carbon:
SMILES	CSC inhib	Rce1 inhib	MT1-MMP act inh	MT1-MMP act inh RFP	eIF4H FP inh	HIV Env fusion	UUG fidelity	PABP FP inh	others
CC(C)OP(=O)(OC(C)C)/C(C=O)=N\Nc1ccc([N+](=O)[O-])cc1	26	i	8	-4	-8	-1	11	-5
Cc1ccc(Cl)cc1NC(=O)C[n+]1ccc(Cc2ccc([N+](=O)[O-])cc2)cc1	18	i	-2	-5	-2	-3	.	-14

Following part:
SMILES	CSC inhib	Rce1 inhib	MT1-MMP act inh	MT1-MMP act inh RFP	eIF4H FP inh	HIV Env fusion	UUG fidelity	PABP FP inh	others
N#Cc1ccc(S(=O)(=O)Nc2ccc3ccccc3n2)cc1	-12	i	0	-2	2	-2	.	12
CCC(C)C(NC(=O)c1ccccc1NC(=O)c1ccccc1)C(=O)O (centres undefined)	-2	i	1	4	-9	-22	-8	0
Cc1c(N)cc[n+](CC(=O)c2ccccc2)c1C	-3	i	3	-2	-6	16	.	4
Cc1ccsc1C1C2=C(CCCC2=O)Nc2ncnn21 (centres undefined)	-7	i	-6	-3	1	-16	-19	-2
Cc1ccc(NS(=O)(=O)c2ccc(C(=O)N3CCCCCCC3)cc2)cc1	5	i	-1	-7	-9	14	-32	1
Cc1nc(C(=O)NCc2ccccc2)sc1C1(C)CC(c2cccnc2)=NO1 (centres undefined)	2	i	1	-19	-11	17	-12	2
Cc1ccc(C(=O)c2c3ccccc3[n+]([O-])n2CCC(N)=O)cc1	-8	i	-2	2	-14	-3	-19	-11
Cc1ccc(NC2(C(F)(F)F)N=C(c3ccccc3)NC2=O)nc1 (centres undefined)	.	i	-3	4	-5	-6	.	-14
O=C(O)CP(=O)(c1ccccc1)c1ccccc1	-7	i	-1	4	-3	.	-11	20
Cc1ccc(-c2cc3c(nn2)-c2ccccc2C3=O)cc1	54	i	9	9	-7	?	-42	1
